VACV Venus inh = vaccinia inhibition (Venus reporter). Vaccinia virus Venus reporter expression, fluorescence. Potency, µM (top dose mostly 36.5 µM), for the others: at the highest dose activity change, negative = inhibition, actives largely listed as inhibitors. actives 0.46% (n = 330,000). AID 720580; active means well fitted inhibition curve with a large enough effect; inconclusive means small, poorly fitted or top-dose-only effect; inactive means no such curve, though single readings can be large or run the other way; tested in A549 cells; also: nearly all actives have a fitted effect of over 30% in size; inactives centre near -10
VACV mCherry inh = vaccinia inhibition (mCherry reporter) | Potency, µM (doses to about 36.5 µM), without a hit: top-dose activity change, negative = inhibition, hits mostly inhibitors | Vaccinia virus mCherry reporter infection, fluorescence; about a quarter of the inactives have no number | actives 0.63% (n = 310,000) | AID 720579; active = well fitted inhibition curve with a large enough effect; inconclusive = small, poorly fitted or top-dose-only effect; inactive = no such curve, though single readings can be large or run the other way; tested in A549 cells; also: nearly all actives have a fitted effect of over 35% in size; inactives centre near -10
Numbers without * were called inactive; i = inactive; u = inconclusive; x = not tested or not shown; & = joins results of further samples; [ ] = dose if it differs, or a comment. % is scaled to controls: 0 for no effect and ±100 for the full control effect; potency is read from the fitted curve at half-maximal effect. Rows are unselected; overall some 0.87% were active at least once.

Screens in order: VACV Venus inh	VACV mCherry inh
CC1Cc2ccccc2N1Cc1cc(=O)n2ccsc2n1 (configuration not stated)
  -6%	-22%
CC1CCN(S(=O)(=O)c2ccc(N/N=C(/C#N)C(N)=O)cc2)CC1
  -5%	x
CCOC(=O)N1CCN(c2nc3ccccc3nc2C(C#N)C(=O)NCCc2ccccc2)CC1 (configuration not stated)
  -6%	x
Cc1c(CC(=O)N2CCN(C(=O)C3COc4ccccc4O3)CC2)c(=O)oc2c(O)c(O)ccc12 (configuration not stated)
  -13%	-14%
COc1cc(C(=O)NCCc2c[nH]c3ccccc23)ccc1OCc1c(C)noc1C
  -20%	-26%
CCN(CC(=O)NCc1cccs1)C(=O)c1ccc(S(=O)(=O)Nc2ccccc2OC)cc1
  2%	-6%
CCN(CC)CC(=O)c1c[nH]c2ccc(C)cc12
  -15%	x
Cc1c(C(=O)NCC2CCCO2)oc2ccc(Br)cc12 (configuration not stated)
  -6%	-12%
Cc1cc(C)cc(-n2c(SCC(=O)N3CCCCC3)nc3c([nH]c4ccccc43)c2=O)c1
  u	-14%
Cc1ccccc1Nc1nc(N)nc(COC(=O)[C@@H](NC(=O)c2ccccc2Cl)C(C)C)n1
  -3%	i
COc1c(C)cc(S(=O)(=O)NCCc2c(C)[nH]c3ccccc23)c(C)c1C
  -9%	-11%
Cc1ccc(-c2cc3ncc(C#N)c(N)n3n2)cc1
  -9%	i
Cc1ccccc1OCC(O)Cn1c(NCc2ccco2)nc2c1c(=O)[nH]c(=O)n2C (configuration not stated)
  u	u
O=[N+]([O-])c1c(C(Cl)Cl)nn(-c2ccccc2)c1N1CCCC1
  u	u
COc1cccc(CNC(=O)C(=O)NCCc2ccc(OC)c(OC)c2)c1
  -27%	-16%
Cc1cccc(C)c1NC(=O)C1(C)CN(S(C)(=O)=O)CC(=O)N1Cc1cccs1 (configuration not stated)
  -7%	-4%
Cc1ccccc1OCCC(=O)NNC(=O)COc1cccc(F)c1
  -12%	-6%
O=C(NCCN1CCOCC1)c1c(O)nc2sccn2c1=O
  4%	-14%
O=C(c1ccc2c(Cl)c3c(nc2c1)CCCC3)N1CCN(c2cccc(Cl)c2)CC1
  -20%	-25%
O=C(CN1CCN(S(=O)(=O)c2ccc(F)c(F)c2)CC1)Nc1ccccc1C(=O)NC1CC1
  -14%	i
COc1ccc2[nH]c(C(=O)NCCc3ccccc3)cc2c1
  -20%	-5%
CCCCn1nc(NC(=O)c2cccs2)c2cc3cc(OC)ccc3nc21
  -9%	x
Cc1ccccc1-n1ncc2c1CC(C)(C)CC2NC(=O)c1ccncc1 (configuration not stated)
  -8%	-17%
CCN(CC)C(=O)c1ccc(C(=O)Nc2ccc(F)cc2)cc1
  -10%	0%
CCOc1ccc(Nc2nc(N(C)c3ccccc3)nc(N)c2[N+](=O)[O-])cc1
  -10%	-23%
Cc1noc(C)c1S(=O)(=O)N(CC(=O)NCCc1ccccc1)c1ccc(C(C)C)cc1
  -12%	-10%
CCCCCCCCNS(=O)(=O)CCNCCCC
  -12%	u
Cc1c(C)[n+](=O)c(C)c(C)n1[O-]
  3%	i
COc1ccccc1CCC(=O)OCC(=O)Nc1cccc(S(=O)(=O)N2CCCCC2)c1
  -11%	-10%
CCOc1nc(Nc2ccc(OC)c(Cl)c2)nc(OCC)n1
  -12%	-29%
CCN(CC)C(=O)COc1ccc2oc(-c3ccco3)cc(=O)c2c1
  -3%	-6%
O=C(NCc1ccccn1)C1COc2ccccc2O1 (configuration not stated)
  -8%	-16%
Cc1ccc(C(=O)N/C(=C\c2cccs2)C(=O)NCCCn2ccnc2)cc1
  -6%	-6%
COc1ccc(-n2c(SCc3ccc(C#N)cc3)nnc2-c2ccccn2)cc1
  -6%	-12%
O=C(CN1C(=O)CCC1=O)c1ccc(-c2ccccc2)cc1
  -10%	i
COc1cccc(C(c2sc3nc(-c4ccco4)nn3c2O)N2CCC(O)CC2)c1 (configuration not stated)
  -2%	-7%
O=C(Cn1cc2c(n1)CCCCC2)Nc1c(F)cc(F)cc1Br
  -6%	-20%
CCC(c1nnnn1-c1ccc2c(c1)OCCO2)N1CCN(C)CC1 (configuration not stated)
  2%	36%[activator]
COc1ccc(NC(=O)COc2ccccc2F)cc1S(=O)(=O)N1CCCCC1
  -14%	-9%
CCOc1ccccc1NC(=O)c1ccc(Cl)c(NC(=O)CC(c2ccccc2)c2ccccc2)c1
  -7%	-2%
CCOc1ccc(-n2ccnc2SCC(=O)Nc2cccc3ccccc23)cc1
  -9%	i
O=C(CSc1nnc(-c2c[nH]c3ccccc23)n1-c1ccc(F)cc1)NCc1ccco1
  -21%	-4%
CCOC(=O)c1c(NC(=O)c2nn(CC)cc2Br)sc(C)c1C
  -10%	-5%
Cc1ccc(C)c(OCCCN2CCc3ccccc3C2)c1
  -11%	-16%
COCCNC(=O)C(c1cccs1)N(CCc1ccccc1)C(=O)Cn1nnc2ccccc21 (configuration not stated)
  6%	-6%

Of the compounds above, six contain a thiophene ring, fused or not:
Screens in order: VACV Venus inh	VACV mCherry inh
CCN(CC(=O)NCc1cccs1)C(=O)c1ccc(S(=O)(=O)Nc2ccccc2OC)cc1
  2%	-6%
Cc1cccc(C)c1NC(=O)C1(C)CN(S(C)(=O)=O)CC(=O)N1Cc1cccs1 (configuration not stated)
  -7%	-4%
CCCCn1nc(NC(=O)c2cccs2)c2cc3cc(OC)ccc3nc21
  -9%	x
Cc1ccc(C(=O)N/C(=C\c2cccs2)C(=O)NCCCn2ccnc2)cc1
  -6%	-6%
CCOC(=O)c1c(NC(=O)c2nn(CC)cc2Br)sc(C)c1C
  -10%	-5%
COCCNC(=O)C(c1cccs1)N(CCc1ccccc1)C(=O)Cn1nnc2ccccc21 (configuration not stated)
  6%	-6%

The list goes on:
Screens in order: VACV Venus inh	VACV mCherry inh
O=c1c2ccccc2nc(-c2ccccc2)n1-c1nccs1
  1%	-7%
CN(C)/C=C/C(=O)c1cccc(Oc2ncccn2)c1
  -11%	i
COCCC(=O)N1CCC(Oc2ccc(C(=O)NCCc3cnn(C)c3)cc2)CC1
  -10%	-21%
Cn1c(SCC(=O)NCc2ccco2)nnc1-c1c[nH]c2ccccc12
  -2%	-3%
COc1ccc(C2CC(=O)n3c(nc4ccccc43)S2)cc1OC (configuration not stated)
  -8%	x
COc1ccc(C2(c3ccc(OC)cc3)NC(=O)N(CC(=O)Nc3ccc(N4CCOCC4)cc3)C2=O)cc1
  -17%	-12%
Cc1ccc(S(=O)(=O)C(CNS(=O)(=O)c2ccc(F)c(C)c2)c2cccs2)cc1 (configuration not stated)
  -20%	-20%
C[C@@H](C(=O)NCc1ccccc1)[C@H]1C[C@]1(C)[C@H](NC(=O)OCc1ccccc1)c1ccccc1
  u	-4%
COC(=O)c1[nH]c2ccc(Cl)cc2c1NC(=O)c1ccccc1[N+](=O)[O-]
  -13%	i
CS(=O)(=O)c1ccc2nc(NC(=O)CN3C(=O)NC4(CCCC4)C3=O)sc2c1
  -1%	i
Nc1c(N=Nc2cccc(Cl)c2)c(=O)[nH]n1-c1ccccc1
  -9%	x
CCCNC(=O)N1[C@H]2CC[C@@H]1C(C(=O)OC)=C(c1ccc(F)cc1F)C2
  -7%	-1%
N=c1c(C(=O)NCC2CCCO2)cc2c(=O)n3ccccc3nc2n1Cc1ccccc1Cl (configuration not stated)
  -5%	i
O=C(NC(=S)N1CCOCC1)c1ccccc1Cl
  -10%	-1%
CCC(=O)N(Cc1cc2cccc(C)c2[nH]c1=O)c1ccccc1OC
  0%	-10%

Among those listed so far, 4 contain a cyano group.
Screens in order: VACV Venus inh	VACV mCherry inh
CC1CCN(S(=O)(=O)c2ccc(N/N=C(/C#N)C(N)=O)cc2)CC1
  -5%	x
CCOC(=O)N1CCN(c2nc3ccccc3nc2C(C#N)C(=O)NCCc2ccccc2)CC1 (configuration not stated)
  -6%	x
Cc1ccc(-c2cc3ncc(C#N)c(N)n3n2)cc1
  -9%	i
COc1ccc(-n2c(SCc3ccc(C#N)cc3)nnc2-c2ccccn2)cc1
  -6%	-12%

More compounds follow:
Screens in order: VACV Venus inh	VACV mCherry inh
CC#CCc1cc2ccccc2c(=O)o1
  7%	16%
CCOc1ncccc1C(=O)NCCc1ccc(Cl)cc1
  -4%	-24%
N/C(=N\OC(=O)CC1CCCCC1)c1ccccc1
  -6%	0%
CN1CCC(=NNc2ccc(S(=O)(=O)N3CCOCC3)cc2[N+](=O)[O-])CC1
  -5%	-19%
CCOC(=O)C(NC(C)=O)C(=O)Nc1ccc(C(C)C)cc1 (configuration not stated)
  -17%	i
COc1ccc([N+](=O)[O-])cc1NC(=O)C(C)OC(=O)CN1C(=O)C2CC=CCC2C1=O (configuration not stated)
  -11%	-4%
O=C1NN(c2ccc(Cl)cc2)C(=O)/C1=C\c1ccc(-c2cccc(C(=O)O)c2)o1
  3%	-1%
COc1ccc(CNCCS(=O)(=O)NC2CCCCC2)cc1
  -9%	i
O=C(C1CCN(S(=O)(=O)c2cnc[nH]2)CC1)N1CCN(Cc2ccc3c(c2)OCO3)CC1
  -9%	-16%
COc1cccc(CNC(=O)CCCN2C(=O)CSc3c2c(C)nn3-c2ccccc2)c1
  -13%	-11%
Cc1ccc(COc2ccsc2C(=O)NNC(N)=S)cc1
  -3%	-13%
Cc1cc(C)c(S(=O)(=O)c2ccc(F)cc2)c(C)c1
  -7%	i
CCOc1ccc(CCNC(=O)CCc2nnc3ccc(N4CCCCC4)nn23)cc1OCC
  -8%	-25%
COc1ccc(CNC(=O)C(=O)NCC(c2ccco2)S(=O)(=O)c2ccc(Cl)cc2)cc1 (configuration not stated)
  0%	-8%
CCC(CC)C(=O)NCCNC(=O)C(CC)CC
  -12%	-9%
CCOC(=O)c1ccc(NC(=O)N2CCCCC2)cc1
  -12%	-26%
C/C(=N/OC(=O)c1c(-c2c(Cl)cccc2Cl)noc1C)c1cnccn1
  -10%	-13%
Cc1ccc(S(=O)(=O)N2[C@@H](c3ccc(C#N)cc3)C(C(=O)O)=C[C@H]2CC2CCCC2)cc1
  -3%	-8%
CCn1c(SCC(=O)N/N=C/C=C/c2ccco2)nnc1-c1ccccc1
  -3%	-8%
O=C(Nc1c(-c2ccccc2)[nH][nH]c1=O)c1cccc(C(F)(F)F)c1
  5%	23%
C[C@]12CCC(O)CC1CCC1C2CC[C@]2(C)C(c3cc(C(F)(F)F)n[nH]3)CCC12 (some centres not stated)
  u	-12%
CN(Cc1ccccc1)C(=O)[C@@H]1CCCN1S(=O)(=O)c1ccc(Cl)cc1
  4%	i
CC(OC(=O)c1ccc(S(=O)(=O)N(C)c2ccccc2)cc1)C(=O)NCCC1=CCCCC1 (configuration not stated)
  -23%	-9%
N#Cc1c(N2C(=O)C3C4C=CC(C4)C3C2=O)sc2c1CCC2 (configuration not stated)
  -2%	-7%
COc1cc(/C=C/C(=O)Nc2nc3ccc(S(=O)(=O)N(C)C)cc3s2)cc(OC)c1OC
  -10%	-8%
CN1C(=O)CCC1c1cccnc1 (configuration not stated)
  -12%	-16%
Clc1cccc(Cl)c1CON/C=N/c1ncnc2sccc12
  u	x
Cc1ccc(NC(=O)NCCOCCn2c(=O)oc3ccccc32)cc1C
  25%	14%
O=C(Nc1cccc(C(F)(F)F)c1)c1cccc(NS(=O)(=O)c2ccc(O)c(C(=O)O)c2)c1
  -3%	-12%
CCN(C[C@H]1N[C@@](C)(C(=O)OC)[C@H]2C(=O)N(Cc3ccccc3)C(=O)[C@@H]12)S(=O)(=O)c1ccc(OC)cc1
  -8%	-1%
Cc1sc2nc(COC(=O)c3cccc(S(=O)(=O)N(C)c4ccccc4)c3)[nH]c(=O)c2c1C
  2%	i
CCCS(=O)(=O)NC(=O)C1(C)CCCN(C(=O)c2cc(F)ccc2C)C1 (configuration not stated)
  2%	0%
N#C/C(=C\c1ccc(O)c(O)c1)C(N)=S
  -6%	i
COCCn1c(=S)[nH]c2cc(C(=O)N3CCN(Cc4ccccc4)CC3)ccc2c1=O
  -12%	i
Cc1cc(Cl)ccc1NC(=O)CN1CCC(C(O)(c2ccccc2)c2ccccc2)CC1
  -16%	-12%
CC1CCCC(NC(=O)CN2C(=O)NC(C)(c3ccccc3)C2=O)C1C (configuration not stated)
  -23%	-29%
CC[C@H](C)[C@@H]1NC(=O)CNC(=O)c2csc(n2)[C@H](C(C)(C)O)OC(=O)C(C)(C)[C@H](CCCC(C)(Cl)Cl)OC(=O)c2csc1n2
  6.3µM*	5.6µM*
O=C(Nc1ccc(N2CCCCC2)c(Cl)c1)c1ccc(N2CCOCC2)c([N+](=O)[O-])c1
  u	-19%
COc1ccc(N2CCN(C(=O)c3cc4c(s3)-c3ccccc3OC4)CC2)cc1
  -24%&-6%	-12%&-14%
CC(C)(C)C(=O)NC1CCN(S(=O)(=O)c2ccc(C(F)(F)F)cc2)CC1
  -7%	-10%
CSCCCNC(=O)c1ccccc1OC1CCN(S(C)(=O)=O)CC1
  -6%	-12%
O=C(Nn1cnnc1)c1ccccc1F
  3%	i
O=C(Cc1ccccc1)NC1CC(=O)N(c2ccccc2)C1 (configuration not stated)
  -11%[7.34 µM]	-4%[7.34 µM]
CCOC(=O)C(CC)(CC)C(=O)/C=C/c1cccc(Br)c1
  -26%	u

High-throughput results deposited in PubChem by National Center for Advancing Translational Sciences (NCATS).
